D2 PAM: potentiates the human D2 dopamine receptor allosterically; P14416; 0.23% of 360,000 active; DiscoveRx D2 beta-arrestin cells, luminescence, 90 min; 100% = 57 uM dopamine signal; potentiation, % (concentration not given with the values); active = potentiation of 50% or more; inconclusive = 30% to 50%; inactive = 30% or less;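 further: compound concentration not given in the record; tested on top of an EC20 dose of dopamine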
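D2 cells co-treated with compound plus 50 nM dopamine (EC20) for 90 min at 37 deg C to detect potentiation. Beta-arrestin recruitment was read as enzyme-fragment luminescence after 1 h at ambient temperature. Full response was set by 57 uM dopamine.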
D2 ag: agonists of human D2 dopamine receptor (beta-arrestin). DiscoveRx PathHunter D2 beta-arrestin, luminescence, 90 min; 100% = 57 uM dopamine signal. activation, % (concentration not given with the values). 0.084% of 360,000 active; in the data active = activation above about 40%; inconclusive = about 15% to 40%; inactive = below about 15%; further: compound concentration not given in the record; the text of the record calls up to 30% inactive
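Agonist mode: compounds alone added to overnight-plated D2 PathHunter cells for 90 min at 37 C, with 57 uM final dopamine (EC100) defining full response. Beta-arrestin recruitment detected by chemiluminescent reagent, read after 1 h at ambient temperature.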
CtBP-E1A blk: blocks the CtBP interaction with E1A. AlphaScreen GST-E1A/His-CtBP binding, 1536-well; active compounds read low; control for the full effect not named in the record. activity change, % (test concentration not listed). 0.49% of 340,000 active; in the data active means activity change below about -65%; inconclusive means about -30% to -65%; inactive means above about -30%; further: on the % scale 0 is the no-effect control and ±100 the full control effect
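Homogeneous bead-based format: GST-tagged E1A captured on glutathione donor beads, His-tagged CtBP on nickel acceptor beads; compounds precede bead addition by 2 h at 37 °C.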
Six1-Eya2 blk: blocks human Six1 binding to Eya2; Q15475+O00167; AlphaScreen GST-Six1/His-Eya2 binding, biochemical; active compounds read low; control for the full effect not named in the record; activity change, % (concentration not given with the values); 0.56% of 360,000 active; AID 651725; in the data active = activity change below about -65%; inconclusive = about -30% to -65%; inactive = above about -30%; further: on the % scale 0 is the no-effect control and ±100 the full control effect
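AlphaScreen with GST-Six1 and His-Eya2 (5X mix: 250 nM and 500 nM), glutathione donor and nickel acceptor beads; buffer 50 mM Tris pH 8.0, 300 mM NaCl, 1 mM TCEP; 1 h at 37 C in the dark.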
TRPV1 PAM: potentiators of human vanilloid receptor 1 (TRPV1). AID 540277. potentiation, % at 8.33 µM. 0.02% of 320,000 active. TRPV1-expressing cells, Fluo-8 calcium influx, capsaicin EC20 potentiation; host cell line not named in the record; control for the full effect not named in the record; active means potentiation above 80%; inconclusive means 30% to 80%; inactive means below 30%; further: 0% is about no effect
Target sequence (Q8NER1 whole entry, looked up): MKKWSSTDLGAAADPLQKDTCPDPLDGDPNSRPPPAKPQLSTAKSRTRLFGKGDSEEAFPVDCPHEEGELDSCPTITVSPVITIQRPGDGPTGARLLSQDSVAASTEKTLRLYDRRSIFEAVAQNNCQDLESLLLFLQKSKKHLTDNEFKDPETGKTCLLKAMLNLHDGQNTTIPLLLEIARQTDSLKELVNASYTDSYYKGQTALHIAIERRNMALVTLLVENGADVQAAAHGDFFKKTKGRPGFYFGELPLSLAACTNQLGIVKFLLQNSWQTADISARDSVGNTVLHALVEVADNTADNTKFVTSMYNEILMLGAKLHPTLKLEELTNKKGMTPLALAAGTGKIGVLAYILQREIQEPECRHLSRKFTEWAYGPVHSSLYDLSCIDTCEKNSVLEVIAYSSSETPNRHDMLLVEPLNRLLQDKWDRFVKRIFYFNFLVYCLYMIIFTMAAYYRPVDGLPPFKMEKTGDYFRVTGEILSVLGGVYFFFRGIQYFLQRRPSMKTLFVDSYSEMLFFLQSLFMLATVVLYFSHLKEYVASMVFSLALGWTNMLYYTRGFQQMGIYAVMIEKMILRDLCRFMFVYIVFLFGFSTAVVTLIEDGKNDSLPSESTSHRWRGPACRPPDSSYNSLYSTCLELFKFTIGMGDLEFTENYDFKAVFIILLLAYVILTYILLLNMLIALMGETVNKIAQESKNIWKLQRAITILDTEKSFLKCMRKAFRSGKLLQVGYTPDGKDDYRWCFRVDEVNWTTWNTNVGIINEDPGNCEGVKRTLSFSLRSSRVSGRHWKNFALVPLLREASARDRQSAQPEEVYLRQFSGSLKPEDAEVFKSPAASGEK
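Cells expressing TRPV1 were dye-loaded with Fluo-8 and read kinetically: 10 s baseline, 3 min after compound (agonist portion), then 2 min after EC20 capsaicin (allosteric enhancer portion). Calcium-bound dye fluorescence at 480/520 nm.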
Sfp inh: blocks B. subtilis Sfp PPTase activity; Q9F4F7; Biochemical Sfp PPTase activity, qHTS; Potency, µM, without a hit: max response, negative = inhibition, hits mostly inhibitors; 3.5% of 310,000 active; active means well fitted inhibition curve with a large enough effect; inconclusive means small, poorly fitted or top-dose-only effect, or another doubt; inactive means no such curve, though single readings can be large or run the other way;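 further: the enzyme is Sfp with the accession as filed and its product quenches rhodamine fluorescence; potency means the concentration at half of the fitted maximal effect; 0% = enzyme reaction without inhibitor and -100% = no enzyme wells; top concentration of the series not given in the record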
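After 15 min at room temperature with compound, 15 nM Sfp received 5 uM rhodamine-CoA plus 12.5 uM BHQ-2-ybbR (50 mM Hepes pH 7.6, 10 mM MgCl2). Rate came from the fluorescence difference over 30 min, ex 525/em 598 nm.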
PINK1 expr mod: PINK1 expression modulation; Potency, µM (titrated, usually from 76.6 µM), for the others: at the top dose activation (PINK1 increase), hits mostly activators; PINK1 immunofluorescence, high-content cytometry, 24 h; 0.2% of 410,000 active; AID 624263; active = well fitted activation curve with a large enough effect; inconclusive = small, poorly fitted or top-dose-only effect; inactive = flat fitted curve, though single readings scatter; cell line not stated here;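 further: potency means the concentration at half of the fitted maximal effect; % of control where 0% means no effect; nearly all actives have a fitted effect of over 65% in size; a mitochondrial uncoupler was the plate control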
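Stable cell line treated 24 h with compounds at 5 concentrations (CCCP controls), then fixed and immunostained for PINK1 plus nuclear and cell stains; PINK1 immunofluorescence quantified by laser-scanning microplate cytometry.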
An asterisk follows results filed as active; ? = inconclusive; . = not tested or not shown; & = joins results of further samples; [ ] = dose if it differs, or a comment. An unsorted share of the library. About 3.7% of those tested had a hit in this group.

Preview, three compounds:
1. Cc1cc(NC(=O)c2cc(C)on2)no1
2. CCOc1cc(/C=C2\C(=N)N3N=C(N4CCCCC4)SC3=NC2=O)ccc1OC(=O)c1ccco1
3. COc1cccc(/C=C2\SC(=S)N(CC(=O)N(C)C3CCS(=O)(=O)C3)C2=O)c1 (centres undefined)

assay / compound,1,2,3
CtBP-E1A blk,1.2,-10.6,-1.5
Six1-Eya2 blk,0.0,-17.0,-1.9
PINK1 expr mod,29.0%[38.3 µM],1.2%,0.2%
Sfp inh,5.8%,?,0.9%
TRPV1 PAM,-10.5,4.0,-3.7
D2 PAM,0.6,-4.5,-24.6
D2 ag,3.6,-2.1,-3.9

This part in full (from the top)
1. Cc1cc(NC(=O)c2cc(C)on2)no1
2. CCOc1cc(/C=C2\C(=N)N3N=C(N4CCCCC4)SC3=NC2=O)ccc1OC(=O)c1ccco1
3. COc1cccc(/C=C2\SC(=S)N(CC(=O)N(C)C3CCS(=O)(=O)C3)C2=O)c1 (centres undefined)
4. CC[C@@]1(c2cccc(C)c2)C(=O)N(C(=O)OC)N1C(=O)OC
5. COc1ccccc1CN1C[C@@H]2C[C@@H](c3ccc(Cl)cc3)N3CCC[C@@]23C1=O
6. CC1=CC(C)(C)N(C(=O)CNC2CCCC2)c2cc(C)ccc21
7. O=C(O)c1ccc(CN(c2ccccn2)S(=O)(=O)c2ccccc2)cc1
8. O=C1Nc2ccc(F)cc2C12Nc1ccccc1-c1nnc(SCc3ccccc3F)nc1O2 (centres undefined)

assay / compound,1,2,3,4,5,6,7,8
CtBP-E1A blk,1.2,-10.6,-1.5,6.4,0.0,5.0,6.1,-1.0
Six1-Eya2 blk,0.0,-17.0,-1.9,-1.2,-1.8,1.2,2.2,-2.1
PINK1 expr mod,29.0%[38.3 µM],1.2%,0.2%,2.2%,-0.2%,4.2%,-3.6%[38.3 µM],.
Sfp inh,5.8%,?,0.9%,-24.2%,-12.0%,?,11.5%,2.3%
TRPV1 PAM,-10.5,4.0,-3.7,17.6,5.9,-4.6,4.9,1.3
D2 PAM,0.6,-4.5,-24.6,-5.1,-9.2,-17.6,1.2,-55.0
D2 ag,3.6,-2.1,-3.9,-5.1,-1.7,-5.5,1.8,-13.9

9. CCN(C(=O)CN1CCCc2cc(C)ccc21)c1c(N)n(Cc2ccccc2)c(=O)[nH]c1=O
10. O=C(COC(=O)CNS(=O)(=O)c1ccccc1)NC12CC3CC(CC(C3)C1)C2
11. Cc1nc2ccccn2c1P(=Nc1ccccc1)(N(C)C)N(C)C
12. CCCNC(=O)C(Cc1cccc(OC)c1)NC(=O)c1ccc(C(C)(C)C)cc1 (centres undefined)
13. Cc1cc(O)c(C(=O)/C=C/c2c(F)c(F)c(F)c(F)c2F)c(=O)o1
14. Cc1cc(C)cc(OCC(=O)OCC(=O)c2ccc3c(c2)NC(=O)CO3)c1
15. COc1ccc(N(C(=O)CNC(=O)c2ccco2)C(C(=O)NC2CCCCC2)c2cccnc2)cc1 (centres undefined)
16. COc1ccc(CN2C(=O)C(Cc3ccccc3)Nc3ncnc(N4CCOCC4)c32)cc1 (centres undefined)

assay / compound,9,10,11,12,13,14,15,16
CtBP-E1A blk,0.8,-2.0,13.2,-0.1,.,-1.5,0.9,-1.5&1.3
Six1-Eya2 blk,6.9,-2.1,-0.4,-3.7,0.8,3.9,-2.1,0.5&1.7
PINK1 expr mod,3.6%,-1.3%,.,12.2%,8.9%,0.5%,-0.4%,0.7%&0.1%
Sfp inh,.,14.7%,15.4%,.,-6.2%,-9.1%,2.2%,.
TRPV1 PAM,.,3.6,-5.2,10.2,-7.0,-1.9,5.7,-4.6
D2 PAM,-1.1,-0.2,-1.2,-6.0,-4.8,1.1,0.4,-21.0&-10.8
D2 ag,-1.4,-0.7,-3.1,-5.5,-6.0,0.9,2.1,-5.0&-11.3

17. CCN(CC)C(=O)COc1ccc(Br)cc1Cl
18. CC1CC(C)CN(C(=O)COC(=O)Cc2c[nH]c3ccccc23)C1 (centres undefined)
19. COc1ccc(OCC(=O)Nc2ccccc2C(=O)N2CCOCC2)cc1
20. COC(=O)CCCC[C@@H]1O[C@H](CCc2ccccc2)CC2=C1C(=O)OC(C)(C)O2
21. Cc1ccn2cc(-c3ccc(Br)cc3)nc2c1
22. O=C(Cc1ccccc1[N+](=O)[O-])NCC(=O)c1ccc2c(c1)OCO2
23. CC(=O)Nc1ccc(OCC(O)CN2CCN(c3ccc(F)cc3)CC2)cc1 (centres undefined)
24. C/C(=N/NC(=O)c1ccncc1)c1ccc(NC(=O)c2ccc(Cl)cc2Cl)cc1

assay / compound,17,18,19,20,21,22,23,24
CtBP-E1A blk,9.8,-3.4,11.5,19.8,-7.3,13.6,-3.7,5.3
Six1-Eya2 blk,4.6,1.4,1.2,2.5,-1.6,-3.7,15.1,3.3
PINK1 expr mod,-1.5%,-3.5%,2.7%,1.1%,3.5%,-4.9%,-1.1%,8.6%
Sfp inh,17.6%,.,15.8%,.,2.9%,.,14.8%,5.3%
TRPV1 PAM,-12.9,-8.7,22.1,.,-8.6,.,-4.0,-10.7
D2 PAM,5.1,-4.7,-5.2,.,-10.8,-10.5,-21.1,4.0
D2 ag,-1.6,-2.2,-4.9,.,-1.7,-3.5,10.1,-4.5

25. O=C(Nc1nccs1)C(c1ccccc1)N1CCCC1 (centres undefined)
26. CN(C(=O)c1ccncc1)c1nnc(-c2cccnc2)s1
27. Nc1nonc1-n1nnc(C(=O)O)c1-c1cccs1
28. CC(C)CCN(CCC(C)C)C/C(O)=C(\C#N)c1nc(-c2ccccc2)cs1
29. O=C(COC(=O)/C=C/c1cccc(C(F)(F)F)c1)NCc1ccc(F)cc1
30. COc1cc(CCC(=O)OCC(=O)Nc2ccc(F)c(F)c2)cc(OC)c1OC
31. Oc1ccc(Cl)cc1CNCc1ccc(C(F)(F)F)cc1
32. COCCNC(=S)N1CCN(c2nc3ccccc3s2)CC1

assay / compound,25,26,27,28,29,30,31,32
CtBP-E1A blk,-1.1,7.4,-5.3,-22.4,-11.5,-15.3,.,-4.3
Six1-Eya2 blk,-0.6,2.7,-2.4,-12.5,3.1,14.4,16.4,-4.7
PINK1 expr mod,1.4%,1.0%,3.6%,?,3.2%,-0.7%,6.7%,1.0%
Sfp inh,5.3%,17.8%,-2.7%,-3.4%,1.5%,16.0%,.,-5.1%
TRPV1 PAM,0.0,-29.2,.,8.2,-25.9,-0.6,28.2,-12.9
D2 PAM,8.2,-14.2,-1.7,-23.4,-7.1,1.8,-19.7,-6.8
D2 ag,-1.0,-1.6,-3.9,-0.8,-1.3,-1.1,5.8,7.8

33. CC(C)(C)n1nc2c(c1NC(=O)c1cc(Cl)ccc1[N+](=O)[O-])CS(=O)(=O)C2
34. C[C@H](O)[C@@H]1C(=O)N2CCc3c([nH]c4ccccc34)[C@@H]2C[C@@H]1N(C)Cc1ccc2c(c1)OCO2
35. O=C(NC1CCCCC1)c1cccc(OCc2ccccc2)c1
36. CCOC(=O)C1=C(COC(=O)C2CC(=O)N(c3ccccc3CC)C2)NC(=O)NC1C (centres undefined)
37. COc1ccc(-c2cc(C(F)(F)F)n3nc(C(=O)Nc4cc(C)on4)cc3n2)cc1OC
38. O=c1c2cn[nH]c2[nH]c(=S)n1-c1cccc(Cl)c1
39. COc1ccc(-c2cnc3c(c2)CCC3(C#N)C#N)cc1
40. Cc1nnc(NC(=O)CCSc2ccccc2)s1

assay / compound,33,34,35,36,37,38,39,40
CtBP-E1A blk,.,-8.4,-12.4,0.6,-6.5,11.3,2.3,2.3
Six1-Eya2 blk,-2.8,-29.9,-0.7,-0.9,-2.8,0.0,-7.0,5.3
PINK1 expr mod,2.5%,-1.1%,17.4%,-0.1%,14.2%,2.6%,17.8%,3.2%[38.3 µM]
Sfp inh,7.2%,.,3.9%,.,8.2%,-23.4%,2.6%,15.0%
TRPV1 PAM,-4.4,.,-1.1,.,-7.2,6.8,1.8,-27.4
D2 PAM,1.1,-5.8,-30.6,-5.4,-26.6,-26.2,-5.0,-1.8
D2 ag,7.4,-4.2,-7.0,-0.9,-0.9,-5.1,-2.5,0.4

41. Cc1cccc(NC(=O)c2ccc(Cl)c(S(=O)(=O)N3CCCC3)c2)n1
42. O=C(C1CCN(S(=O)(=O)N2CCOCC2)CC1)N1CCN(Cc2ccc3c(c2)OCO3)CC1
43. CN(Cc1ccccc1)C(=O)c1cccc(NC(=O)Cc2cccc([N+](=O)[O-])c2)c1
44. Cc1ccc(S(=O)(=O)NCC(c2cccnc2)N(C)C)cc1 (centres undefined)
45. Cc1cc(=O)[nH]c(N/N=C/c2c(C)oc3ccccc23)n1
46. O=C(COC(=O)c1cc(S(=O)(=O)N2CCCCC2)ccc1N1CCOCC1)NCCc1ccc(F)cc1
47. O=C(NCc1ccco1)C(=S)N1CCCC1
48. CCOC(=O)c1ccc(NC(=S)N(CCCN2CCN(CC)CC2)Cc2ccco2)cc1

assay / compound,41,42,43,44,45,46,47,48
CtBP-E1A blk,-0.7,1.8,-5.0,-9.0,-5.7,.,-1.0,4.7
Six1-Eya2 blk,-0.1,2.4,-11.7,-9.3,-26.9,0.4,3.1,0.6
PINK1 expr mod,3.1%,-0.3%,-0.3%,3.7%,0.2%,-1.2%,0.8%,-2.3%
Sfp inh,14.9%,17.5%,.,-3.1%,-9.6%,2.8%,35.2%[activator],-1.0%
TRPV1 PAM,-16.1,-4.1,.,-2.8,3.5,-0.7,22.6,0.6
D2 PAM,-11.8,-24.6,-7.0,-5.1,-1.1,-12.6,-3.9,-9.5
D2 ag,-2.1,2.6,0.3,-5.7,4.6,14.4,-17.2,-3.1

49. Cc1ccc(OCC(=O)Nc2ccc3c(c2)OCO3)c(C)c1
50. Cc1cc2[nH]c(=O)c(=O)[nH]c2cc1S(=O)(=O)Nc1cccc(Cl)c1C
51. O=C(NC1CCCCCCC1)C1CCC(CNc2c(N3CCCC3)c(=O)c2=O)CC1 (centres undefined)
52. Cc1ccc(CNC(=S)Nc2ccc(OC(F)F)cc2C)cc1

assay / compound,49,50,51,52
CtBP-E1A blk,-6.1,0.2,5.8,4.3
Six1-Eya2 blk,2.0,-1.8,-2.6,-5.3
PINK1 expr mod,4.3%,1.6%,1.1%,10.5%
Sfp inh,16.3%,11.1%,5.2%,0.1%
TRPV1 PAM,-0.4,1.3,12.6,13.4
D2 PAM,4.3,-0.6,-1.5,-8.0
D2 ag,2.6,-0.8,-3.2,0.3

Look-ups from above:
Under Sfp inh, cpd 52 is listed with 0.1%
Under D2 PAM, cpd 50 is listed with -0.6
Under D2 ag, cpd 49 is listed with 2.6
Under Six1-Eya2 blk, cpd 51 is listed with -2.6

Source: PubChem BioAssay (National Center for Advancing Translational Sciences (NCATS))
